RecA splice inh: Mtb RecA intein splicing inhibition. P9WHJ3. cell-free RecA intein splicing, fluorescence. inhibition, %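 (about 9 µM by stock and volumes)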. 290,000 tested, 0.75% active; in the data active = inhibition above about 30%; inconclusive = no clear call, values can overlap the other calls;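 also: 0% = vehicle wells and 100% = reference inhibitor control wells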
Target sequence (P9WHJ3 whole entry, looked up, canonical isoform): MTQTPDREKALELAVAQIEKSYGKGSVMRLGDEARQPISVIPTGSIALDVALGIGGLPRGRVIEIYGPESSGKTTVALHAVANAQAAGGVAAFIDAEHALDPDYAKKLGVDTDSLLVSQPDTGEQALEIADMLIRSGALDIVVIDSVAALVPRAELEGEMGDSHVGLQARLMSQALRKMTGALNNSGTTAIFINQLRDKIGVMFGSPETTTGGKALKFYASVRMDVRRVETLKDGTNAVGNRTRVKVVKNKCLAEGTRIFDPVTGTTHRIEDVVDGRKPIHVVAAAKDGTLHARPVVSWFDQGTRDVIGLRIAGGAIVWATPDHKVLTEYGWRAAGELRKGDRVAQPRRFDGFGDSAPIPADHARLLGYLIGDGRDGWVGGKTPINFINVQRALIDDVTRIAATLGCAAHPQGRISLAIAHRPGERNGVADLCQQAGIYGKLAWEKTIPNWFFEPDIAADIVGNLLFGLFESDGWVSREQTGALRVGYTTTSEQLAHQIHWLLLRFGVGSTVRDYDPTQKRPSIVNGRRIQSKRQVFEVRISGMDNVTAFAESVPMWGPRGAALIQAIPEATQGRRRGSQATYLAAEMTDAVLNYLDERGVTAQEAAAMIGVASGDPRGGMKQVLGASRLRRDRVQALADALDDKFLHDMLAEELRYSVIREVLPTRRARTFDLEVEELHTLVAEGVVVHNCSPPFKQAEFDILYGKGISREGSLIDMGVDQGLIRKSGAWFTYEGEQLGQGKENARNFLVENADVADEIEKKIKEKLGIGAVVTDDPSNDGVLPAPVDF
YopH inh: blocks Yersinia enterocolitica YopH tyrosine phosphatase | 140,000 tested, 0.16% active | fluorescence Ex485/Em525 | inhibition, %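 (about 10 µM by stock and volumes)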 | AID 898;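 active = inhibition of 50% or more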;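 also: controls were vehicle for no effect and minimum signal wells for full effect; inactives centre near -20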
Mtb betalactam: beta-lactam sensitization of Mtb H37Rv; M. tuberculosis H37Rv growth with meropenem, percent inhibition; hits of this screen are not shown here; 330,000 tested, 0.27% active; inhibition, % at 25 µM;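 active = about 74% or more and at least 40 points above the plate without the antibiotic, then above 30% in a dose series; inconclusive = first-round hits that could not be retested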;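 also: growth measured after seven days incubation then overnight dye step; 0% = bacteria only wells and 100% = bacteria with antibiotic; twin plates without the antibiotic show which effects depend on it; some results filed as inactive read as strong as hits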
Arbovirus anti: antivirals against arbovirus infection. arbovirus infection cell-based antiviral screen. inhibition, % at 10 µM. 200,000 tested, 0.37% active. AID 1251;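 active = inhibition from about 30%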;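 also: bluetongue infection of BSR cells; cell survival read as ATP light after 72 h; 0% = infected wells without compound and 100% = uninfected wells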
Mtb H37Rv: M. tuberculosis H37Rv growth inhibitors, H37Rv strain (AID 1626); M. tuberculosis H37Rv growth inhibition; higher % means a stronger effect; inhibition, % at 10 µM, or IC50 in µM where a hit was titrated; 220,000 tested, 0.95% active;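 active = confirmed in a dose series; inconclusive = inhibition above 80% but not taken into the dose series; inactive = below 80% or under 30% at every dose of the series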;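 also: bacteria incubated seven days before Alamar blue readout; 0% = bacteria only wells and 100% = bacteria with antibiotic wells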
Arbovirus anti repeat: also measured in Arbovirus anti; calls as there; inhibition, %; measured here: 10K subset replicate screen; many hits read low in the repeat;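 first of two repeat runs on a subset; 0% = infected and 100% = uninfected wells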
Active calls of the source: *; ? = inconclusive; · = not tested or not shown. A portion of the library (hit frequency here may not be typical).

SMILES | RecA splice inh | YopH inh | Mtb betalactam | Arbovirus anti | Mtb H37Rv | others
Cn1c(=O)c2c(SCc3ccccn3)nc(CC(C)(C)C)nc2n(C)c1=O | -1.8 | -7.1 | 1.8 | -36.3 | 17.9%
Cn1cnnc1Sc1ccc(C(F)(F)F)cc1[N+](=O)[O-] | -0.3 | · | 3.1 | 2.1 | 5.6%
COC(=O)c1ccc(/C=N/NC(=O)c2ccccc2Cl)cc1 | 0.2 | 0.3 | 98.1 | -1.2 | ?
CCOC(=O)c1sc2ncn(/N=C/c3ccc(O)cc3)c(=O)c2c1C | 5.4 | · | 93.8 | -13.5 | ·
Cc1onc(-c2ccccc2)c1C(=O)OCC(=O)N(CC(C)C)c1c(N)n(Cc2ccccc2)c(=O)[nH]c1=O | -0.8 | · | -11.8 | · | ·
COc1ccc(N=Nc2nc3ccc(Br)cc3n2C)cc1 | 0.7 | -3.6 | 99.3 | -10.8 | ·
COc1ccc(/C=C2\SC(=N)N(c3nccs3)C2=O)cc1OC | -4.7 | -3.7 | 83.4 | -42.4 | <0.195µM*
Cc1cc(NN)nc(NS(=O)(=O)c2ccccc2Cl)n1 | -1.7 | · | -1.6 | 0.3 | -3.3%
CC(C)OC(=O)c1cccc(C(=O)OCc2ccco2)n1 | 0.4 | -21.9 | -0.1 | -6.5 | ·
Cc1ccc(C(=O)OCC(=O)N2C(C)CCCC2C)cc1S(=O)(=O)N1CCOCC1 (stereo unspecified) | 0.2 | · | -12.3 | · | ·
COc1ccc2c(c1)O[C@@H](c1ccc3c(c1)OCO3)[C@H](OC(=O)Nc1cc(OC)c(OC)c(OC)c1)C2=O | · | -4.8 | · | -14.6 | 3.3%
COc1cccc2c(=O)n(CC(=O)N3CCCCC3)ccc12 | 0.7 | -35.6 | 5.1 | -1.7 | 7.1%
Cc1ccccc1CSCC(=O)c1c(N)n(CC(C)C)c(=O)n(C)c1=O | 1.3 | 2.1 | 2.5 | -6.6 | -6.5%
CCc1ccc(Cc2cnc(NC(=O)C3=NCCN3)s2)cc1 | 0.4 | · | 97.8 | -16.7 | ?
COCCN(CC(=O)Nc1ccc(F)cc1)S(=O)(=O)c1ccc(S(=O)(=O)N2CCCC2)cc1 | -2.6 | -22.4 | 0.8 | -7.3 | -9.9%
O=C(COc1cccnc1[N+](=O)[O-])Nc1ccccc1Sc1ccccc1 | 0.7 | -32.4 | -3.2 | -11.4 | 14.0%
Cc1cc(C)c2c(N)c(C(=O)Nc3ncc(C)s3)sc2n1 | · | -97.2 | 3.2 | -14.2 | 7.6%
C/C(CC(=O)Nc1ccc2c(c1)OCCO2)=N\NC(=O)C(=O)Nc1ccccc1C | 0.3 | · | 7.4 | -2.9 | 2.4%
COc1ccc(-n2c3c(cc(C(=O)NCc4ccco4)c2=O)C(=O)CC(C)(C)C3)cc1 | -3.2 | · | 1.6 | 2.6 | 9.9%
COCCNC(=O)c1ccc(C)c(NC(=O)C2=C(C)OCCS2)c1 | -3.5 | · | -4.3 | · | ·
N#C/C(=C\C=C\c1ccccc1)C(=O)NCc1cccnc1 | 1.0 | · | -0.3 | 6.8 | -5.3%
CCCNC(=O)CCn1c(=S)oc2ccccc21 | -4.7 | · | -2.7 | · | 1.2%
Cc1ccccc1C(=O)NNC(=O)CCc1ccccc1 | 1.0 | · | -4.9 | 4.1 | -3.8%
CCC(=O)NCCCCNC(=O)CC | 0.4 | 30.9 | -0.5 | -1.8 | -8.2%
Cc1cc(=O)n2nc(N3CCCC(C(=O)NCc4cccc(Br)c4)C3)sc2n1 (stereo unspecified) | -0.4 | · | -13.8 | · | ·
Next part:
SMILES | RecA splice inh | YopH inh | Mtb betalactam | Arbovirus anti | Mtb H37Rv | others
Cn1c(=O)c2c(O)c(C=NCc3ccccc3)c(=O)n(C)c2n(C)c1=O | -2.0 | · | -10.0 | · | -4.2%
O=C1CSC(=Nc2ccc(Cl)cc2)N1Cc1ccco1 | 5.4 | · | 55.4 | · | 23.9%
COc1ccc(C(C)=O)cc1CSc1nnc(C)s1 | 0.0 | -20.6 | 5.2 | 2.5 | -8.6% | Arbovirus anti repeat=-1.3
O=C(c1cccc(S(=O)(=O)Nc2ccccc2Cl)c1)N1CCN(C(=O)c2ccco2)CC1 | 2.1 | · | -3.6 | 3.3 | -4.0%
COc1ccc(N(CC(=O)Nc2ccc(C)cn2)S(=O)(=O)c2c(C)noc2C)cc1 | 2.7 | -19.9 | ? | 6.8 | -4.5%
CC(O)CNc1nc2c(c(=O)n(Cc3ccc(Cl)cc3)c(=O)n2C)n1C (stereo unspecified) | -0.7 | · | -11.3 | · | ·
O=C1CCCC2=C1C(c1cccs1)n1nc(SCc3ccc(C(=O)O)cc3)nc1N2 (stereo unspecified) | -1.2 | · | -2.3 | · | -6.0%
Cc1cc(=O)oc2cc(Nc3ccccc3)ccc12 | -6.3 | -17.4 | 6.8 | -8.1 | 3.1%
COc1ccc(CNC(=O)CSc2nc3ccccc3n2C(C)=O)cc1 | 5.8 | · | 3.1 | · | ·
C/C(=N\NC(=O)c1nnn(-c2nonc2N)c1CN(C)c1ccccc1)c1ccccn1 | -0.7 | · | 93.0 | · | ·
CC(=O)Nc1ccc(NC(=O)CSc2nnc(CC(C)O)n2-c2ccccc2)cc1 (stereo unspecified) | -1.2 | · | -0.6 | · | ·
O=C(c1cc([N+](=O)[O-])ccc1N1CCOCC1)N1CCCCC1 | 2.0 | 12.6 | -3.4 | -6.6 | 0.8%
CN(CC1CCOCC1)C(=O)CC1C(=O)NCCN1Cc1ccc(F)c(F)c1 (stereo unspecified) | -0.9 | · | -2.5 | · | ·
Cc1c(C(=O)NN)nn(-c2ccc(F)cc2)c(=O)c1C#N | 17.5 | · | 0.6 | · | ·
CCOC(=O)C1CCN(Cc2coc3c(Cl)cc(Cl)cc3c2=O)CC1 | -2.6 | -1.3 | 10.4 | 0.7 | 2.3%
COc1cccc(-c2nn(-c3ccccc3)cc2C(=O)n2nnc3ccccc32)c1 | 1.1 | -15.6 | 17.4 | -36.2 | -9.5%
COc1ccc(N=C2S/C(=C\c3ccc(OC(C)C(=O)O)c(OC)c3)C(=O)N2CCc2c[nH]c3ccccc23)cc1 (stereo unspecified) | 3.5 | · | · | -6.2 | -4.0%
Cc1cc(C)c2c(c1)C1C=CCC1C(c1ccc(S(=O)(=O)N3CCOCC3)cc1)N2 (stereo unspecified) | 10.3 | -29.2 | 6.3 | -10.9 | 1.2%
O=C(NCc1ccco1)c1ccc(Cl)cc1[N+](=O)[O-] | -1.4 | · | 10.5 | · | ·
COc1cc(S(=O)(=O)N2CCC(O)(c3cccc(C(F)(F)F)c3)CC2)ccc1-n1cnnn1 | 0.1 | -14.8 | -6.3 | 0.8 | -14.3%
Cc1ccc(/C=C2\SC(=S)N(CCCC(=O)N3CCOCC3)C2=O)cc1 | 2.1 | · | -3.1 | · | ·
CCCCn1c2c(c(=N)c3c1CCC3)CCC2 | · | -9.7 | 0.2 | 8.8 | -7.8%
CCCS(=O)(=O)c1nc(S(=O)(=O)c2ccc(C)cc2)c(NCc2ccco2)s1 | 4.7 | -9.4 | -3.4 | -3.1 | ·
COC(=O)CCCC(=O)N1CCCC(N(C)CCc2ccccc2)C1 (stereo unspecified) | -1.6 | · | 4.8 | · | ·
Cc1nnc(SCC(=O)NNC(=O)c2ccco2)n1-c1cccc(Cl)c1 | -1.8 | · | 3.2 | 16.3 | 7.5%

14 consecutive entries out of the list so far:
SMILES | RecA splice inh | YopH inh | Mtb betalactam | Arbovirus anti | Mtb H37Rv | others
O=C1CCCC2=C1C(c1cccs1)n1nc(SCc3ccc(C(=O)O)cc3)nc1N2 (stereo unspecified) | -1.2 | · | -2.3 | · | -6.0%
Cc1cc(=O)oc2cc(Nc3ccccc3)ccc12 | -6.3 | -17.4 | 6.8 | -8.1 | 3.1%
COc1ccc(CNC(=O)CSc2nc3ccccc3n2C(C)=O)cc1 | 5.8 | · | 3.1 | · | ·
C/C(=N\NC(=O)c1nnn(-c2nonc2N)c1CN(C)c1ccccc1)c1ccccn1 | -0.7 | · | 93.0 | · | ·
CC(=O)Nc1ccc(NC(=O)CSc2nnc(CC(C)O)n2-c2ccccc2)cc1 (stereo unspecified) | -1.2 | · | -0.6 | · | ·
O=C(c1cc([N+](=O)[O-])ccc1N1CCOCC1)N1CCCCC1 | 2.0 | 12.6 | -3.4 | -6.6 | 0.8%
CN(CC1CCOCC1)C(=O)CC1C(=O)NCCN1Cc1ccc(F)c(F)c1 (stereo unspecified) | -0.9 | · | -2.5 | · | ·
Cc1c(C(=O)NN)nn(-c2ccc(F)cc2)c(=O)c1C#N | 17.5 | · | 0.6 | · | ·
CCOC(=O)C1CCN(Cc2coc3c(Cl)cc(Cl)cc3c2=O)CC1 | -2.6 | -1.3 | 10.4 | 0.7 | 2.3%
COc1cccc(-c2nn(-c3ccccc3)cc2C(=O)n2nnc3ccccc32)c1 | 1.1 | -15.6 | 17.4 | -36.2 | -9.5%
COc1ccc(N=C2S/C(=C\c3ccc(OC(C)C(=O)O)c(OC)c3)C(=O)N2CCc2c[nH]c3ccccc23)cc1 (stereo unspecified) | 3.5 | · | · | -6.2 | -4.0%
Cc1cc(C)c2c(c1)C1C=CCC1C(c1ccc(S(=O)(=O)N3CCOCC3)cc1)N2 (stereo unspecified) | 10.3 | -29.2 | 6.3 | -10.9 | 1.2%
O=C(NCc1ccco1)c1ccc(Cl)cc1[N+](=O)[O-] | -1.4 | · | 10.5 | · | ·
COc1cc(S(=O)(=O)N2CCC(O)(c3cccc(C(F)(F)F)c3)CC2)ccc1-n1cnnn1 | 0.1 | -14.8 | -6.3 | 0.8 | -14.3%

Remaining list, next part.
SMILES | RecA splice inh | YopH inh | Mtb betalactam | Arbovirus anti | Mtb H37Rv | others
CN1CCN(CC(=O)NC2CCCCC2)CC1 | 0.7 | 6.3 | -8.6 | 5.7 | 1.8%
COC(=O)COc1ccc(S(=O)(=O)N2CCCCCC2)cc1 | 2.0 | · | 96.0 | 2.1 | ?
O=C(NCCCN1CCOCC1)/C(=C/c1cccnc1)NC(=O)c1ccccc1 | 1.7 | · | -6.5 | -6.0 | 5.2%
COc1ccc(CCC(=O)N2c3ccccc3CC2C)cc1 (stereo unspecified) | 2.4 | -28.6 | 31.0 | -12.7 | 16.5%
CC(=O)[C@@]1(O)CC[C@H]2[C@@H]3CCC4=CC(=O)CC[C@]4(C)[C@H]3[C@@H](O)C[C@@]21C | -0.1 | -25.7 | -2.8 | 23.1 | 15.5%
CN(Cc1ccncc1)C1CC(=O)N(c2ccc(F)cc2)C1=O (stereo unspecified) | -1.0 | · | -5.2 | 9.7 | 0.4%
Cc1ccc(C(=O)COC(=O)c2ccc(O)cc2)cc1 | -3.5 | · | 1.6 | 0.7 | 9.1%
CCN(CC)S(=O)(=O)c1ccc(C(=O)N2CCN(c3ncccn3)CC2)cc1 | -2.2 | · | 0.3 | · | ·
c1coc(-c2nnc3sc(C4CCCCC4)nn23)c1 | -1.1 | -33.7 | -5.5 | -2.5 | -1.1%
Cc1cc(C)c(S(=O)(=O)N(C)c2ccccc2)c(C)c1 | 8.2 | · | 4.2 | 4.7 | 1.4%
CCC1CCCCN1C(=O)CCS(=O)(=O)c1ccc2c(c1)CCN2C(C)=O (stereo unspecified) | 0.6 | · | -4.3 | · | ·
O=C(CCC(=O)N1CCN(C2CCCC2)CC1)Nc1nnc(C(F)(F)F)s1 | · | -34.9 | -9.7 | 0.3 | 5.8%
CCNC(=S)NNC(=O)c1cc(-c2cccc(OC)c2)nc2ccccc12 | 1.0 | 1.4 | 5.0 | -12.9 | 16.6%
CCOC(=O)c1cnc2c(cnn2C)c1NCCC(O)C(F)(F)F (stereo unspecified) | 0.3 | -10.3 | -0.8 | -3.5 | 0.9%
COc1ccc(C(=O)OCc2c(C)noc2C)cc1 | 1.5 | · | 3.1 | -0.8 | -1.8%
CCc1c(O)nc(SCC(=O)Nc2nc3ccccc3s2)n(-c2ccc(C)cc2)c1=O | 5.7 | · | -1.5 | · | -6.2%
CCOc1ccc(-c2nn3c(-c4ccc(F)cc4)nnc3s2)cc1 | 6.6 | -27.1 | 11.3 | · | 1.6%
COc1ccc2oc3ccc(OC)cc3c(=O)c2c1 | -92.2 | -28.9 | 39.9 | -2.8 | -4.9%
c1cncc(-c2nc(N3CCCCCC3)c3ccccc3n2)c1 | 10.5 | -35.9 | 80.3 | -20.8 | ·
O=C(NCc1cccnc1)/C(=C/c1ccccc1)NC(=O)c1ccccc1 | -1.4 | · | 5.6 | -1.0 | -3.8%
Cc1cc(-c2ccc(C(C)C)c(S(=O)(=O)N3CCN(c4ccccn4)CC3)c2)on1 | 2.8 | · | 0.1 | · | ·
O=C(COC(=O)/C=C/c1cccc([N+](=O)[O-])c1)NCCCN1CCCC1=O | -1.7 | · | 4.2 | 15.2 | 7.2%
Cc1sc2ncn(CC(=O)N3CCCCC3)c(=O)c2c1C | -0.9 | · | -3.5 | 1.5 | 2.4%

Screening data from PubChem.
